# Assay outcomes: PubChem, several laboratories
# Env fusion inh = blocks HIV Env-driven cell-cell fusion | HeLa-JRFL Env/CEM21 cell fusion, luciferase | inhibition, % at 12.3 µM | 360,000 compounds, 1.1% hits;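 active means mean replicate inhibition score of at least 50 and every replicate individually at or above 50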;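 further: 0% = plate neutral controls and 100% = maraviroc near 300 nM; one replicate is shown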
# MT1-MMP act inh = inhibitors of human MT1-MMP activation; 360,000 compounds, 0.061% hits; AID 651647; P50281; GFP/RFP ratio change, % at 20 µM; HT1080 RFP-PRO-GFP cells, GFP/RFP ratio fluorescence, overnight; percent of plate control window, DMSO zero;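 active means GFP/RFP ratio change of at least 30% with cell ATP level not reduced by more than half and red fluorescence within 50% of control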; further: strong numbers were not always called active
#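 Test system: HT1080 cells expressing an RFP-PRO-GFP fluorescent reporter construct / Compound dosing: single-point 20 µM compound, 1% DMSO / Schedule: cells overnight before dosing, compound overnight, 37 °C, 5% CO2 / Evaluation: GFP/RFP fluorescence ratio / Control set: DMSO and RFP-L50D-GFP cell wells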
# CSC inhib = blocks cancer stem cells; 300,000 compounds, 1.1% hits; inhibition, % at 7.5 µM; AID 2717; cancer stem cell-like cells viability, luminescence;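 active means mean at 75% or more and at least half the replicates too; tested in HMLE shEcad cells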;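 further: 0% = median of negative and 100% = median of positive control wells; the first replicate is given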
# UUG fidelity = alters start codon recognition fidelity in yeast | activity score, % at 18.7 µM | 350,000 compounds, 0.13% hits | AID 602363 | S. cerevisiae UUG-firefly luciferase reporter, luminescence/redox ratio;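 active means replicate mean at a twofold rise or more, about +100% in these data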;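 further: firefly luciferase made from a UUG start codon reports start codon fidelity; reporter light over untreated wells divided by growth signal over untreated wells; some hits fall short of that in this replicate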
# eIF4H inh = inhibitors of RNA binding by human eIF4H; inhibition, % at 35 µM; AID 2012; 290,000 compounds, 0.94% hits; eIF4H fluorescence polarization binding assay; Q15056;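 active means 50% or more with normal probe brightness, or confirmed in later tests; about a fifth of its hits are not listed in these tables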;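 further: calls also rest on retests at 20 µM and on dose response follow-up; 0% = protein and probe with vehicle and 100% = probe without protein; strong numbers were not always called active; many hits fall short of the cut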
# Rce1 inh = yeast Ras-converting enzyme inhibition. yeast membranes, quenched prenylated peptide cleavage fluorescence. calls only. 290,000 compounds, 0.27% hits. AID 2563;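 active means fall in fluorescence gain of 50% or more versus controls, with final raw signal at or below 3038400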;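 further: plate controls were neutral control wells for no effect and wells lacking membranes for full effect; tested at 10 µM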
# PABP polyA inh = blocks human PABP binding to poly(A) RNA. 290,000 compounds, 1% hits. inhibition, % at 35 µM. fluorescence polarization. P11940. AID 2014;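 active means 50% or more with normal probe brightness, or confirmed in later tests; about a fifth of its hits are not listed in these tables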;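 further: calls also rest on retests at 20 µM and on dose response follow-up; controls were probe without protein and protein plus probe with vehicle; some compounds called inactive have numbers as strong as hits; many hits fall short of the cut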
# Target sequence (P11940 whole entry, looked up): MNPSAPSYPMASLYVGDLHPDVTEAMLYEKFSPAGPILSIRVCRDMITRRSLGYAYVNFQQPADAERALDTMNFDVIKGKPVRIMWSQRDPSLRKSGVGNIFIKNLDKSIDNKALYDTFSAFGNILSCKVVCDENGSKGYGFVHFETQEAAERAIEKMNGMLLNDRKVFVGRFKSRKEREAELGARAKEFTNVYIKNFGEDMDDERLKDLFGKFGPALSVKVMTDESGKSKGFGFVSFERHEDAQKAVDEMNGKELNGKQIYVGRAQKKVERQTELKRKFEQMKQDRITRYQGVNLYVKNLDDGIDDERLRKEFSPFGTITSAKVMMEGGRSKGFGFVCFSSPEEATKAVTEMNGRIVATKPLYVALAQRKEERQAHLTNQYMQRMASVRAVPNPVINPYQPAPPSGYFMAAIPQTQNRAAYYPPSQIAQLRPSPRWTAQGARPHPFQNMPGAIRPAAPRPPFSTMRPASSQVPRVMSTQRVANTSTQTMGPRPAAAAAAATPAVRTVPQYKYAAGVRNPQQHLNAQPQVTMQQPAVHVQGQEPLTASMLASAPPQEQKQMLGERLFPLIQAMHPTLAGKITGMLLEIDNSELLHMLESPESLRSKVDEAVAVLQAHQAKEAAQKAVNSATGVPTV
# eIF4H inh retest = further read-out of eIF4H inh, marked with its call; inhibition, %; compound at 20 µM; confirmation average;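 mean of two retest wells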
# PABP polyA inh retest = further read-out of PABP polyA inh, marked with its call; inhibition, %; compound at 20 µM; confirmation repeats;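 mean of two retest wells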
# MT1-MMP act inh RFP = also measured in MT1-MMP act inh; calls as there; RFP signal change, %; measured here: RFP expression control read;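 0 = vehicle wells; hits needed this value within 50% of zero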
# Numbers without * were called inactive; i = inactive; · = not tested or not shown.
SMILES,Env fusion inh,MT1-MMP act inh,MT1-MMP act inh RFP,CSC inhib,UUG fidelity,eIF4H inh,Rce1 inh,PABP polyA inh,others
COc1ccc(OC)c(N(CC(=O)NCCSCc2ccco2)S(=O)(=O)c2ccccc2)c1,20,-5,-2,·,-15,-2,i,0,
CC(Oc1ccccc1)C(=O)Nc1cc(Cl)ccc1-n1cncn1 (stereo not drawn),-2,-2,-4,-2,·,·,i,·,
CN(C)Cc1c(C(=O)N/N=C/c2cccc(OCc3c(F)cccc3Cl)c2)nnn1-c1nonc1N,25,0,-30,22,-10,-12,i,-1,
CNC(=O)c1ccc(-c2sc3nc(N4CCOCC4)c4c(c3c2N)CC(C)(C)OC4)o1,-26,16,2,-4,10,-1,·,6,
COc1cccc(C(=O)Nc2cccc3cccnc23)c1OC,·,1,1,-8,-11,4,i,3,
CC(COc1ccccc1)N1CCC(CO)(CCc2ccccc2)CC1 (stereo not drawn),-15,0,-1,12,-18,7,i,2,
Cc1ccc(C(=O)NCC(=O)NC2CCCC2)cc1,-10,-1,3,8,-16,-5,i,86,eIF4H inh retest=-2;PABP polyA inh retest=2
CN(CC(=O)NCCCN1CCOCC1)S(=O)(=O)c1ccc(Cl)cc1,-6,-2,2,-13,-13,·,·,·,
CCN(CC)CCNc1cccc2sc3ccccc3c(=O)c12,2,-9,6,·,7,·,·,·,
CC1(C(=O)NS(=O)(=O)c2cccs2)CCN1C(=O)Cc1ccc(-c2ccccc2)cc1 (stereo not drawn),3,0,5,·,-7,·,·,·,
CN(CCN1CCOCC1)Cc1nc(-c2ccc3c(c2)OCO3)no1,15,-3,1,-18,·,4,i,-6,
Cc1ccc(S(=O)(=O)N(C)C[C@@H]2Oc3ccc(NS(=O)(=O)c4ccccc4)cc3CC(=O)N([C@@H](C)CO)C[C@H]2C)cc1,-26,-1,-1,·,-11,·,·,·,
CCOC(=O)N1CCC(NC(=O)c2cc3c(C)nc4ccccc4c3o2)CC1,20,0,-9,-8,4,-2,i,-11,
COC(=O)c1ccc(C(=O)O)nc1,-8,-5,-4,-2,·,3,i,6,
CCOc1ccccc1NC(=O)C1Cc2ccccc2CN1S(C)(=O)=O (stereo not drawn),-58,-1,0,-18,7,-3,i,-8,
O=c1[nH]c2ccc(F)cc2[nH]c1=O,-226,-1,2,-16,·,-8,i,-4,
O=C(Oc1cccc(NC2=NS(=O)(=O)c3ccccc32)c1)c1cccnc1,-2,0,0,-6,·,0,i,0,
Cc1ccc(C(=O)CCC(=O)NCc2ccccc2)cc1,-2,-3,1,-7,2,-6,i,-15,
COCCn1c(-c2cccs2)nc2nc3ccccc3nc21,2,0,0,0,-12,-12,i,3,
COc1cccc(CN2CCNC(=O)C2CC(=O)NC2CCOCC2)c1OC (stereo not drawn),-6,-1,4,·,-3,-3,i,11,
COc1cc(C(=O)N(CCCO)Cc2cc3ccc(C)c(C)c3[nH]c2=O)cc(OC)c1OC,-44,4,8,·,-4,2,i,-7,
CCc1ccc(NC(=O)C2CCN(c3ncnc4c3nc3n4CCCCC3)CC2)cc1,-6,0,-19,-10,-21,-12,i,4,
CCOc1ccc(/C=N/NC(=O)c2ccc3nc[nH]c3c2)cc1OC,-5,5,2,·,-9,·,·,·,
CN1C(C(=O)NCc2ccco2)CC2Cn3c(nc4cc5ccccc5cc43)C21 (stereo not drawn),16,0,-1,9,-18,-3,i,-8,
NS(=O)(=O)c1ccc(CNC(=O)c2cnccn2)cc1,7,3,9,-3,-13,-4,i,-1,
CCOC(=O)/C(C(=O)Nc1ccccc1Br)=C1/NC(C)(C)Cc2ccccc21,-33,1,0,-12,-18,1,i,1,
CC(=O)c1sc(N/N=C\c2ccc(Br)cc2)nc1C,-46,-71,0,16,·,-10,i,-14,
COc1ccc(NC(=O)CC2C(=O)N(c3ccc(OC)cc3)C(=O)N2Cc2ccc(OC)c(OC)c2)cc1 (stereo not drawn),27,0,5,10,·,2,i,3,
CC(=O)c1ccc(N2CCN(C(=O)CN(C)S(=O)(=O)c3cnc[nH]3)CC2)cc1,7,6,0,6,·,-3,i,-19,
Cc1ccc(-c2nc(CN3CCN(c4cnccn4)CC3)c(C)o2)o1,-6,-1,1,-6,·,3,i,-4,
O=C(NC1CCCC1)C(c1cccnc1)N(C(=O)c1csnn1)c1ccc(F)cc1 (stereo not drawn),14,4,-1,-1,-15,-3,i,-1,
CC[C@H]1C/C=C\Cc2ccccc2[C@H](C(=O)C[C@@H](O)CC(C)=O)OC1=O,-15,-6,5,·,2,·,·,·,
Cc1cc(CNC(=O)c2cccnc2Cl)c2ccccc2n1,1,-3,-4,12,-21,-12,i,-3,
COc1ccc2c(C)cc(SCC(=O)Nc3cc(C(N)=O)cc(C(N)=O)c3)nc2c1,2,6,-3,1,-5,-6,i,-8,
CCOCCCN(C)C1CCN(S(=O)(=O)c2csc(C(N)=O)c2)CC1,-16,-3,0,-6,·,-8,i,2,
CCn1c(/C=C/c2ccccc2)nc2ccccc2c1=O,17,-1,-3,·,1,-9,i,1,
CCn1c(NCc2cccs2)nc2ccccc21,·,3,2,-6,-7,7,i,0,
CCOc1cc(C(=O)NCCc2ccc(S(N)(=O)=O)cc2)cc(OCC)c1OCC,1,-2,0,-1,0,-4,i,-6,
O=C(c1ccc(F)cc1)C1CCN(C(=O)c2ccc(F)cc2)CC1,7,-2,2,-9,-8,0,i,3,
COc1cc(CC2COC(c3ccc(O)c(OC)c3)C2COC(C)=O)ccc1O (stereo not drawn),·,6,0,-7,-1,90*,·,55*,

# Overlap with the part before: 4 compounds, followed by the next part.
SMILES,Env fusion inh,MT1-MMP act inh,MT1-MMP act inh RFP,CSC inhib,UUG fidelity,eIF4H inh,Rce1 inh,PABP polyA inh,others
CCn1c(NCc2cccs2)nc2ccccc21,·,3,2,-6,-7,7,i,0,
CCOc1cc(C(=O)NCCc2ccc(S(N)(=O)=O)cc2)cc(OCC)c1OCC,1,-2,0,-1,0,-4,i,-6,
O=C(c1ccc(F)cc1)C1CCN(C(=O)c2ccc(F)cc2)CC1,7,-2,2,-9,-8,0,i,3,
COc1cc(CC2COC(c3ccc(O)c(OC)c3)C2COC(C)=O)ccc1O (stereo not drawn),·,6,0,-7,-1,90*,·,55*,
CCN(CC)CCn1c(SCC(=O)NCc2ccccc2)nc2c(sc3ccccc32)c1=O,8,1,6,-2,0,4.5*,i,52*,eIF4H inh retest=91*;PABP polyA inh retest=73*
O=C1Nc2ccccc2OC1CC(=O)N1CCOCC1 (stereo not drawn),-1,-4,4,-13,-14,-9,i,3,
O=C(NC(=S)NCc1ccc(-c2nc3ccccc3s2)cc1)c1ccco1,-18,0,-1,13,·,-5,i,3,
CC(C)n1c(-c2ccncc2)n[nH]c1=S,-10,-11,-5,-12,·,2,i,2,
CCOC(=O)c1c(C)n(-c2ccc(C)cc2)c2ccc(O)c(CN(C)C)c12,36,-3,-4,1,-1,4,i,-8,
COC(=O)c1sc(N2C(=O)C(O)=C(C(=O)c3ccc(C)o3)C2c2ccco2)nc1C (stereo not drawn),-3,-5,2,-10,-36,52*,i,34*,eIF4H inh retest=74*;PABP polyA inh retest=58*
CCCn1c(C(C)Nc2nc(-c3ccc(C)cc3)cs2)nc2cc(Cl)c(Cl)cc21 (stereo not drawn),·,0,0,-9,-20,78,i,-9,eIF4H inh retest=-5;PABP polyA inh retest=-8
COc1cccc(C(=O)NC2CCCc3ccccc32)c1 (stereo not drawn),-18,0,-2,12,-9,-8,i,-10,
CCOc1ccc(NCc2nnc(SCC(=O)Nc3cc(C)on3)n2-c2ccccc2OC)cc1,·,1,-4,34,·,-7,i,-9,
NC(=O)c1ccsc1NC(=O)COC(=O)c1cc(Cl)ccc1O,-10,4,-3,-9,-14,·,i,·,
COc1ccc(C(=O)Nc2cc(C)nn2-c2ccc(F)cc2)cc1,6,1,0,-8,2,2,·,5,
Cn1c(NN)nc2ccccc2c1=O,-2,5,3,2,·,4,i,2,
S=C(Nc1ccccc1)N1CCOCC1,11,3,4,·,·,-6,i,-2,
CC1(C)Cc2c(sc3[nH]c(=S)n(Cc4ccccc4)c(=O)c23)CO1,·,-2,-4,51,-11,8,i,-2,
COC(=O)c1c(NC(=O)c2ccccc2F)sc(C(=O)N2CCOCC2)c1C,31,-1,4,·,-12,5,i,5,
CCOc1ncccc1C(=O)OCCCC(=O)c1ccc(Br)cc1,·,3,4,-13,-15,·,·,·,
COc1ccc(/C=C/c2cc(O)cc(OC3OC(CO)C(O)C(O)C3O)c2)cc1 (stereo not drawn),-169,-1,-2,·,4,·,·,·,
COCCNS(=O)(=O)c1ccc(SC)cc1,·,8,6,-3,-2,3,i,24,
Cc1ccc(-c2c(C(=O)N3CCOCC3)oc(=O)c3ccccc23)cc1,-15,0,4,10,-17,-1,i,3,
CC(=O)N(c1ccccc1)c1nc(C)cc(C)c1C#N,-4,3,3,2,-10,-2,i,-18,
CNC(=S)n1cnc(N)n1,19,-2,-2,-15,·,-5,i,2,
CCOc1ccc(N(CC(=O)NN=C2CCN(C)CC2)S(=O)(=O)c2ccc(Br)cc2)cc1,9,-1,4,-6,-14,-1,i,12,
c1ccc(NC2=Nc3ccccc3CS2)cc1,·,-1,-8,-6,·,-4,i,3,
COc1ccc(S(=O)(=O)c2ccc(OCC3CO3)cc2)cc1 (stereo not drawn),-7,1,1,-5,4,1,i,26,

# Quoted at random: 4 entries already listed.
SMILES,Env fusion inh,MT1-MMP act inh,MT1-MMP act inh RFP,CSC inhib,UUG fidelity,eIF4H inh,Rce1 inh,PABP polyA inh,others
CNC(=S)n1cnc(N)n1,19,-2,-2,-15,·,-5,i,2,
CCOc1ccc(N(CC(=O)NN=C2CCN(C)CC2)S(=O)(=O)c2ccc(Br)cc2)cc1,9,-1,4,-6,-14,-1,i,12,
COc1ccc(S(=O)(=O)c2ccc(OCC3CO3)cc2)cc1 (stereo not drawn),-7,1,1,-5,4,1,i,26,
c1ccc(NC2=Nc3ccccc3CS2)cc1,·,-1,-8,-6,·,-4,i,3,

# Not all compounds are listed; count on the stated rates, not on these rows.
